Screens as filed in PubChem.
Mtb growth = M. tuberculosis H37Rv growth inhibitors, H37Rv strain (AID 1626); M. tuberculosis H37Rv growth inhibition; higher % means a stronger effect; one-dose inhibition, % at 10 µM; IC50 in µM for titrated hits; 0.95% of 220,000 active;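 active means confirmed in a dose series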;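 further: bacteria incubated seven days before Alamar blue readout; 0% = bacteria only wells and 100% = bacteria with antibiotic wells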
Mtb betalactam = beta-lactam sensitization of Mtb H37Rv; inhibition, % at 25 µM; 0.27% of 330,000 active; M. tuberculosis H37Rv growth with meropenem, percent inhibition; hits of this screen are not shown here;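 active means about 74% or more and at least 40 points above the plate without the antibiotic, then above 30% in a dose series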;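 further: growth measured after seven days incubation then overnight dye step; 0% = bacteria only wells and 100% = bacteria with antibiotic; twin plates without the antibiotic show which effects depend on it; some results filed as inactive read as strong as hits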
Arbovirus anti = blocks arbovirus infection; 0.37% of 200,000 active; arbovirus infection cell-based antiviral screen; inhibition, % at 10 µM;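 active means inhibition from about 30%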;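 further: bluetongue infection of BSR cells; cell survival read as ATP light after 72 h; 0% = infected wells without compound and 100% = uninfected wells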
RecA intein inh = blocks M. tuberculosis RecA intein splicing | P9WHJ3 | cell-free RecA intein splicing, fluorescence | inhibition, %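 (about 9 µM by stock and volumes)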 | 0.75% of 290,000 active | AID 2221; in the data active means inhibition above about 30%;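 further: 0% = vehicle wells and 100% = reference inhibitor control wells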
Target sequence (P9WHJ3 whole entry, looked up): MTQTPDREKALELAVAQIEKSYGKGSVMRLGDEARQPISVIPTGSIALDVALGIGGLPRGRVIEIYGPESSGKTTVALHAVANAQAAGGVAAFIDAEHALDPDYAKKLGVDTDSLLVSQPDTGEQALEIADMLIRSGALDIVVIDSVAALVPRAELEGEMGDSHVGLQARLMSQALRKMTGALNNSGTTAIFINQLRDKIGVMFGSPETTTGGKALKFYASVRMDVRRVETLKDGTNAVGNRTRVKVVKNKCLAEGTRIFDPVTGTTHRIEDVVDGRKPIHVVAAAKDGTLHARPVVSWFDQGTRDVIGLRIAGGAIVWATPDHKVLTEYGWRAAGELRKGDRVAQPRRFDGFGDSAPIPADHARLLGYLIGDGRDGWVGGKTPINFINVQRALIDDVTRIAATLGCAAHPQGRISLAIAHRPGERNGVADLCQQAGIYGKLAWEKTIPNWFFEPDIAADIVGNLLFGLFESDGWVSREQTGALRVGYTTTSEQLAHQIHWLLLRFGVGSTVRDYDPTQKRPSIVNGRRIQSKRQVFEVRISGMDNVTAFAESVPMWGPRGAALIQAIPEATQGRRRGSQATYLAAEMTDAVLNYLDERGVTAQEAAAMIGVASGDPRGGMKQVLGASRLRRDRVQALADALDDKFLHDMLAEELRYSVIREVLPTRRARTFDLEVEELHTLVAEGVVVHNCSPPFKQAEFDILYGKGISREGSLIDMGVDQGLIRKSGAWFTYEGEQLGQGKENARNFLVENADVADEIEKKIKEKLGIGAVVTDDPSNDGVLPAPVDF
YopH inh = YopH (Yersinia) phosphatase inhibition. fluorescence Ex485/Em525. inhibition, %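 (about 10 µM by stock and volumes)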. 0.16% of 140,000 active. AID 898;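 active means inhibition of 50% or more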;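 further: controls were vehicle for no effect and minimum signal wells for full effect; inactives centre near -20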
Arbovirus anti repeat = second read-out of Arbovirus anti, no call of its own (marks repeat the call); inhibition, %; measured here: 10K subset replicate screen; many hits read low in the repeat;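 first of two repeat runs on a subset; 0% = infected and 100% = uninfected wells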
The depositor's hits bear a star; nt = not tested or not shown.

SMILES | Mtb growth | Mtb betalactam | Arbovirus anti | RecA intein inh | YopH inh | others
O=C(Nc1ccc(OC(F)F)c(Cl)c1)c1cccc(OC(F)F)c1 | 10% | 39 | -35 | 7.3 | -30
CC(C)(C)C1CCC(C(=O)NNC(=O)c2ccncc2)CC1 (stereo not drawn) | nt | -7 | nt | 0.0 | nt
COc1ccc(C)cc1-n1c(=O)c2ccccc2c2ccccc2c1=O | -6% | nt | -1 | 21 | nt
Cc1cccc(C)c1NC(=O)c1sccc1SCC#N | -5% | 8 | -12 | nt | -43
CC(C(=O)NC1=NCCS1)(C(F)(F)F)C(F)(F)F | -3% | 3 | 10 | 0.7 | -33
Cc1c(C(=O)Nc2ccccn2)oc2ccccc12 | 18% | nt | 0 | 0.2 | -19
COc1ccccc1CNS(=O)(=O)c1cc(C)ccc1OC | -8% | -10 | -3 | 1.4 | -21
Cc1ncc(CO)c(/C=N/Nc2cccc(Cl)n2)c1O | nt | -1 | nt | -7.0 | nt
CC1(C)C(C(=O)N2CCN(c3ccc(Cl)cc3)CC2)C1(C)C | nt | -6 | nt | 5.7 | nt
N#Cc1nc(-c2ccccc2)oc1N1CCCCC1 | 0% | 6 | 0 | -0.8 | -28
CC(=O)c1cccc(NC(=O)N2CCC(c3nnc(SCC(N)=O)n3C)CC2)c1 | -3% | -3 | 3 | 1.7 | 6
CC(C)NC(=O)COC(=O)c1ccc(Cl)c(S(=O)(=O)N2CCCC2)c1 | -6% | -1 | -1 | nt | 7
C=CCNCC(=O)Nc1ccccc1SCC(=O)Nc1ccsc1C(=O)OC | -3% | 6 | 8 | 2.2 | nt
COc1cc(C(c2c(C)[nH][nH]c2=O)c2c(C)[nH][nH]c2=O)cc([N+](=O)[O-])c1O | 10% | 1 | -6 | 97* | nt
COc1ccccc1Nc1nc(NCCCCO)nc(N2CCCC2)n1 | 7% | -12 | nt | 1.3 | nt
Cc1ccc(NC(=O)CSc2ccc(-c3ccc(-n4cccn4)cc3)nn2)c(C)c1 | nt | -4 | nt | -3.2 | nt
Cc1ccc(C2=N/C(=C\N3CCCCC3)C(=O)O2)cc1 | 3% | 0 | 6 | -5.1 | 9
COc1ccc(N=c2oc3cc(O)ccc3cc2C(=O)Nc2ccccn2)cc1OC | 5% | 15 | 6 | -96 | nt
COc1ccccc1N(CC(=O)N1CCc2ccccc2C1)S(C)(=O)=O | -1% | -8 | 2 | 2.2 | nt
COc1ccc(N(C(=O)COc2ccccc2)C2C=CS(=O)(=O)C2)cc1 (stereo not drawn) | 7% | -3 | 4 | -0.7 | -26
O=C(Nc1ccc(F)cc1)OCCOc1ccc(Br)cc1 | 16% | -3 | nt | 0.6 | nt
CC(=O)NC(C)c1ccc(Cl)c(Cl)c1 (stereo not drawn) | -1% | -5 | 6 | -1.2 | -37
COC(=O)CCC(=O)NC(=S)Nc1ccc(S(=O)(=O)Nc2cc(OC)nc(OC)n2)cc1 | 4% | 4 | 1 | 0.3 | -6
O=C1C=C(c2cc3ccccc3s2)CCC1 | 4% | -2 | nt | 0.3 | nt
CCc1ccc(S(=O)(=O)Nc2ccc(-c3ccc4nncn4n3)cc2)s1 | nt | 11 | nt | 3.0 | nt
COC(=O)c1sc2cc(C(F)(F)F)cnc2c1-c1ccccn1 | 6% | 0 | 2 | nt | nt
CCOc1cc(/C=N/NC(=O)OC)ccc1OCCSc1ccc(Cl)cc1 | 4% | -1 | 8 | 0.5 | -3
O=C(NCc1ccccc1)N1CCN(c2ccccc2F)CC1 | -4% | 3 | -8 | 0.4 | -40
O=C(Cn1nc(CNc2ccc(Cl)cc2)[n+]2c1CCCCC2)c1ccccc1 | 9% | 2 | -5 | -2.5 | -36
N#CCN1C(=S)N=C(Nc2cccc(Cl)c2)C12CCCCC2 | 5% | 10 | 0 | 2.0 | -76
CCC1C(=O)NCCN1C(=O)c1ccc(OC)c(OC2CCN(C(C)=O)CC2)c1 (stereo not drawn) | nt | -9 | nt | -1.6 | nt
COC(=O)c1cccc2c1-c1ccccc1/C2=N/O | nt | 16 | 4 | 0.3 | -37
CCN(CCNC(=O)C1CCN(S(=O)(=O)c2cccc3cccnc23)CC1)c1ccccc1 | -3% | -3 | -10 | -1.0 | 3 | Arbovirus anti repeat=-11
Cn1ccnc1SCC(=O)Nc1ccc2c(c1)OC(F)(F)O2 | 0% | 4 | 8 | -1.8 | nt
Cc1ccc(C(=O)Nc2cccc(NC(=O)c3ccc(C)c([N+](=O)[O-])c3)n2)cc1[N+](=O)[O-] | nt | 12 | nt | 0.3 | nt
CCC1C(C#N)=C(SC)NC2=C1C(=O)CC(C)(C)C2 (stereo not drawn) | -12% | -4 | 5 | -2.4 | -51
COC1CCN(C(=O)C2CCC(=O)N(C3CCCCCC3)C2)CC1 (stereo not drawn) | nt | 0 | nt | -7.4 | nt
CC1CCCCN1CCn1c(=S)[nH]c2ncccc2c1=O (stereo not drawn) | 1% | 29 | -1 | 1.3 | -18
O=C(CN1C(=O)C2C3CC(C(Br)C3Br)C2C1=O)N1CCOCC1 (stereo not drawn) | -8% | 2 | 1 | -0.1 | -24
COc1ccccc1/C=C/C=N/n1c(-c2ccccc2)n[nH]c1=S | 14% | -6 | nt | -1.0 | nt
CCn1c(SCC(=O)N2CCCCC2)nnc1-c1ccc(S(=O)(=O)N2CCN(C)CC2)cc1 | -3% | 6 | 5 | -1.0 | 4
COc1ccc(N2C3=[N+](CCCC3)CC2(C)O)cc1 (stereo not drawn) | 0% | 7 | 9 | -0.7 | nt
O=C(c1cccc(S(=O)(=O)N2CCCCC2)c1)N1CCOCC1 | -6% | -16 | 6 | 2.4 | -28
CCOc1ccc(OCc2ccc(C(=O)NN)o2)cc1 | -7% | -9 | nt | 0.2 | nt
CC1=NN(c2ccccc2)C(=O)/C1=C\C=C\c1ccccc1 | 3% | 98 | nt | 0.5 | nt
Cc1ccc(-c2c(C#N)c(N)n(-c3ccccc3)c(=O)c2C#N)cc1 | nt | -7 | -7 | -2.1 | -5
COC(=O)C1=C(N)Oc2cc(C)n(Cc3cccnc3)c(=O)c2C1c1cccc(OC)c1OC (stereo not drawn) | -4% | -9 | 0 | nt | -45
Cc1nnc(SCc2ccccc2)[nH]c1=O | -7% | -5 | 1 | 0.0 | nt
CC(C)c1ccc(N(C(=O)CNC(=O)c2ccco2)C(C(=O)NC2CCCC2)c2cccnc2)cc1 (stereo not drawn) | nt | 3 | nt | 1.4 | nt
O=C(O)C1=C[C@@H](c2ccc(F)cc2)C[C@@H](OCCCCO)O1 | -10% | -3 | nt | -1.1 | nt
CCCCn1nnnc1NCc1ccc(C)cc1 | nt | 7 | nt | -0.3 | nt
CCOC(=O)C1Cn2c(nc3c(c2=O)C2(CCCC2)Cc2ccccc2-3)S1 (stereo not drawn) | 0% | -4 | 10 | nt | -21 | Arbovirus anti repeat=15
CCCC(=O)Nc1ccc(NCc2ccc(C)s2)cc1 | nt | 0 | nt | -2.7 | nt
O=C(Nc1cccnc1)c1scc2c1OCCO2 | 8% | -2 | -8 | -1.2 | -54
COc1cc(OC)cc(C(=O)NCC(=O)OCC(=O)c2cc(C)n(Cc3ccco3)c2C)c1 | 14% | 8 | -4 | 5.3 | -9
CCOCCCNC(=O)c1ccc2c(=O)n(CCCOCC)c(=S)[nH]c2c1 | -6% | -8 | 2 | -10 | nt
O=C(CSCc1c(Cl)cccc1Cl)Nc1ccc2c(c1)OCCO2 | -4% | -9 | -1 | 0.7 | -23
CCC1(CC)Cc2ccccc2C(=O)N1 | -3% | 2 | nt | 1.2 | nt
CCCN(CC(=O)Nc1ccc(F)c(F)c1F)C(=O)Cn1c(=O)cnc2ccccc21 | nt | -2 | nt | 10 | nt
CCCCCCCCCCCCN1[C@@H](CC(=O)O)c2cc(C(F)(F)F)ccc2S1(=O)=O | -5% | -12 | nt | 22 | nt

Random excerpt: two entries already listed
SMILES | Mtb growth | Mtb betalactam | Arbovirus anti | RecA intein inh | YopH inh | others
CCC1C(C#N)=C(SC)NC2=C1C(=O)CC(C)(C)C2 (stereo not drawn) | -12% | -4 | 5 | -2.4 | -51
N#Cc1nc(-c2ccccc2)oc1N1CCCCC1 | 0% | 6 | 0 | -0.8 | -28

Other structures follow:
SMILES | Mtb growth | Mtb betalactam | Arbovirus anti | RecA intein inh | YopH inh | others
CCCN1CNC(=S)N(c2ccc(C)cc2C)C1 | -7% | -8 | nt | -0.7 | nt
Cc1cc(NC(=O)CSC2=NCCS2)no1 | -4% | 2 | -2 | 3.9 | -8
COc1ccc(C)c2sc(NC(=O)c3cccc(N4C(=O)CCC4=O)c3)nc12 | nt | -12 | nt | 2.6 | nt
COCCCNC(=O)c1ccc(NC(C)=O)cc1 | -7% | 0 | 6 | -0.9 | nt
CC(=O)N(Cc1ccc(Br)cc1)c1cccc(C)c1C | 0% | -11 | -12 | 8.0 | nt
COc1cccc(C(=O)NC2CCN(C(=O)N3CCCCC3)CC2)c1 | -15% | -2 | 8 | 0.4 | -58
CSc1ncccc1C(=O)OCc1ccc(Br)cc1 | 2% | -1 | -1 | 7.3 | nt
COC(=O)c1ccccc1NC(=O)CNCCc1ccc(OC)c(OC)c1 | nt | -7 | nt | 1.7 | nt
NC1=NC[C@H](Cc2ccc(O)cc2)N1CCc1cccc2ccccc12 | 28% | 86 | nt | 0.8 | nt
O=C(NCCO)Nc1ccc2nc(-c3ccco3)c(-c3ccco3)nc2c1 | -1% | -2 | 14 | nt | nt
CN(CCc1ccccn1)c1ccc([N+](=O)[O-])cn1 | -11% | -11 | nt | 6.1 | nt
COc1ccc(NC(=O)N2C3CCCC2CC(NC(=O)C2CC2)C3)cc1 (stereo not drawn) | nt | 17 | nt | 0.6 | nt
c1cc2c(cc1-n1cnnn1)OCO2 | 1% | -3 | 1 | 13 | nt
CCc1nnc(NC(=O)C(=O)NCCOC(=O)c2ccccc2)s1 | 11% | 5 | -3 | -0.3 | -1
Cc1c(C)n(C(=O)CN2CCN(c3ccccc3)CC2)c2ccccc12 | -4% | 0 | 1 | 5.6 | -14
COc1ccc(C)cc1NC(=O)C(OC(=O)CNC(=O)c1cccc(F)c1)c1ccccc1 (stereo not drawn) | -2% | -6 | -6 | 0.1 | -19
O=C(Cn1cnc2ccccc2c1=O)Nc1nnc(SCc2ccccc2)s1 | -13% | -4 | 7 | 3.4 | -36
O=C(OCCN1CCOCC1)c1cccs1 | -10% | 22 | 2 | 1.6 | 8
O=S(=O)(NCCC(c1ccc(F)cc1)c1ccco1)c1ccccc1 (stereo not drawn) | -10% | 4 | -13 | 10 | -31

Among those listed so far, these contain fluorine.
SMILES | Mtb growth | Mtb betalactam | Arbovirus anti | RecA intein inh | YopH inh | others
O=C(Nc1ccc(OC(F)F)c(Cl)c1)c1cccc(OC(F)F)c1 | 10% | 39 | -35 | 7.3 | -30
CC(C(=O)NC1=NCCS1)(C(F)(F)F)C(F)(F)F | -3% | 3 | 10 | 0.7 | -33
O=C(Nc1ccc(F)cc1)OCCOc1ccc(Br)cc1 | 16% | -3 | nt | 0.6 | nt
COC(=O)c1sc2cc(C(F)(F)F)cnc2c1-c1ccccn1 | 6% | 0 | 2 | nt | nt
O=C(NCc1ccccc1)N1CCN(c2ccccc2F)CC1 | -4% | 3 | -8 | 0.4 | -40
Cn1ccnc1SCC(=O)Nc1ccc2c(c1)OC(F)(F)O2 | 0% | 4 | 8 | -1.8 | nt
O=C(O)C1=C[C@@H](c2ccc(F)cc2)C[C@@H](OCCCCO)O1 | -10% | -3 | nt | -1.1 | nt
CCCN(CC(=O)Nc1ccc(F)c(F)c1F)C(=O)Cn1c(=O)cnc2ccccc21 | nt | -2 | nt | 10 | nt
CCCCCCCCCCCCN1[C@@H](CC(=O)O)c2cc(C(F)(F)F)ccc2S1(=O)=O | -5% | -12 | nt | 22 | nt
COc1ccc(C)cc1NC(=O)C(OC(=O)CNC(=O)c1cccc(F)c1)c1ccccc1 (stereo not drawn) | -2% | -6 | -6 | 0.1 | -19
O=S(=O)(NCCC(c1ccc(F)cc1)c1ccco1)c1ccccc1 (stereo not drawn) | -10% | 4 | -13 | 10 | -31

Only part of the results is shown (hit frequency here may not be typical).
